CSC inhib = cancer stem cell inhibition; AID 2717; 1.1% of 300,000 active; inhibition, % at 7.5 µM; cancer stem cell-like cells viability, luminescence;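 active = mean at 75% or more and at least half the replicates too; inconclusive = mean and replicates disagree; tested in HMLE shEcad cells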;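 note: 0% = median of negative and 100% = median of positive control wells; the first replicate is given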
Rce1 inhib = blocks yeast Ras-converting enzyme; yeast membranes, quenched prenylated peptide cleavage fluorescence; calls only; 0.27% of 290,000 active; Q03530; AID 2563;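 active = fall in fluorescence gain of 50% or more versus controls, with final raw signal at or below 3038400; inconclusive = same 50% fall but final raw signal above 3038400; inactive = fall in fluorescence gain under 50%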;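 note: plate controls were neutral control wells for no effect and wells lacking membranes for full effect; tested at 10 µM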
Target sequence (Q03530 whole entry, looked up): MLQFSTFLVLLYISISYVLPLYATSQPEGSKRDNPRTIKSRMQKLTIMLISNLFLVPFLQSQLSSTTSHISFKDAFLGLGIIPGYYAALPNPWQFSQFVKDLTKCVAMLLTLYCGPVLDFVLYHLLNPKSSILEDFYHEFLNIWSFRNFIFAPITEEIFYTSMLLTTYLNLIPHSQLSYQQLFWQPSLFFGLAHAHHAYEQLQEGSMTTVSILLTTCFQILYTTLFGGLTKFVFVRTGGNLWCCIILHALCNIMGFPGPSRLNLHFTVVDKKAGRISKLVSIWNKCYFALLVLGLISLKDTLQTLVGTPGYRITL
UUG fidelity = yeast start codon fidelity modulation | activity score, % at 18.7 µM | S. cerevisiae UUG-firefly luciferase reporter, luminescence/redox ratio | 0.13% of 350,000 active;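 active = replicate mean at a twofold rise or more, about +100% in these data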;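 note: firefly luciferase made from a UUG start codon reports start codon fidelity; reporter light over untreated wells divided by growth signal over untreated wells; some hits fall short of that in this replicate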
eIF4H inh = inhibitors of RNA binding by human eIF4H | eIF4H fluorescence polarization binding assay | 0.94% of 290,000 active | inhibition, % at 35 µM | Q15056 | AID 2012;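 active = 50% or more with normal probe brightness, or confirmed in later tests; inconclusive = above 50% with abnormal brightness, or retests that disagree; inactive = below 50% or failed in later tests; about a fifth of its hits are not listed in these tables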;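 note: calls also rest on retests at 20 µM and on dose response follow-up; 0% = protein and probe with vehicle and 100% = probe without protein; strong numbers were not always called active; many hits fall short of the cut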
MT1-MMP act inh = blocks activation of human MT1-MMP; HT1080 RFP-PRO-GFP cells, GFP/RFP ratio fluorescence, overnight; percent of plate control window, DMSO zero; GFP/RFP ratio change, % at 20 µM; 0.061% of 360,000 active; AID 651647;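 active = GFP/RFP ratio change of at least 30% with cell ATP level not reduced by more than half and red fluorescence within 50% of control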; note: strong numbers were not always called active
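Assay system: RFP-PRO-GFP reporter HT1080 cells; read-out basis: GFP/RFP fluorescence ratio; benchmarks: DMSO wells and RFP-L50D-GFP cells; doses: 20 µM single dose, 1% DMSO; schedule: overnight cell settling, then overnight compound exposure, 37 °C, 5% CO2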
PABP polyA inh = blocks human PABP binding to poly(A) RNA; fluorescence polarization; P11940; 1% of 290,000 active; AID 2014; inhibition, % at 35 µM;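 active = 50% or more with normal probe brightness, or confirmed in later tests; inconclusive = above 50% with abnormal brightness, or retests that disagree; inactive = below 50% or failed in later tests; about a fifth of its hits are not listed in these tables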;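 note: calls also rest on retests at 20 µM and on dose response follow-up; controls were probe without protein and protein plus probe with vehicle; some compounds called inactive have numbers as strong as hits; many hits fall short of the cut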
Target sequence (P11940 whole entry, looked up): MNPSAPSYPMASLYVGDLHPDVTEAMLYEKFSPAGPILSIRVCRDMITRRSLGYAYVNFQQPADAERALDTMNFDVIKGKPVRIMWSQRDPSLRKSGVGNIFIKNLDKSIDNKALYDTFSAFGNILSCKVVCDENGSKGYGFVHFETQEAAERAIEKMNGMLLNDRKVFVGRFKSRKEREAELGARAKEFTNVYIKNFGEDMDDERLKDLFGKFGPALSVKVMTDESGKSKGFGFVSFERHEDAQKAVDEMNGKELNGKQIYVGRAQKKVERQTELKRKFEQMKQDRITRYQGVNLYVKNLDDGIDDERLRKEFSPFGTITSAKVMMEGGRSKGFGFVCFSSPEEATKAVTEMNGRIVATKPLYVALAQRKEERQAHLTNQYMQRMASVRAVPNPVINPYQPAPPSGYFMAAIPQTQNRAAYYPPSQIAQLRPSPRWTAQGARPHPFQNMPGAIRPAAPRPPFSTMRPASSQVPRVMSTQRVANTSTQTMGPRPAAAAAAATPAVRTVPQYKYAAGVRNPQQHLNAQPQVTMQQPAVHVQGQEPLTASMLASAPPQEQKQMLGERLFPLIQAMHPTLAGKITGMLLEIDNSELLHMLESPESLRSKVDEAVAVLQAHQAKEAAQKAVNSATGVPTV
HIV Env fusion = HIV envelope-mediated fusion inhibition; inhibition, % at 12.3 µM; 1.1% of 360,000 active; HeLa-JRFL Env/CEM21 cell fusion, luciferase;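 active = mean replicate inhibition score of at least 50 and every replicate individually at or above 50; inconclusive = only one of the two criteria met; inactive = mean below 50 and not all replicates reaching 50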;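 note: 0% = plate neutral controls and 100% = maraviroc near 300 nM; one replicate is shown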
eIF4H inh retest = recorded beside eIF4H inh, whose call it bears; inhibition, %; compound at 20 µM; confirmation average;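 mean of two retest wells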
PABP polyA inh retest = recorded beside PABP polyA inh, whose call it bears; inhibition, %; compound at 20 µM; confirmation repeats;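 mean of two retest wells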
MT1-MMP act inh RFP = further read-out of MT1-MMP act inh, marked with its call; RFP signal change, %; measured here: RFP expression control read;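 0 = vehicle wells; hits needed this value within 50% of zero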
Starred values were filed as active, the others as inactive; i = inactive; ? = inconclusive; . = no result given; [ ] = remark or other dose.

SMILES	CSC inhib	Rce1 inhib	UUG fidelity	eIF4H inh	MT1-MMP act inh	MT1-MMP act inh RFP	PABP polyA inh	HIV Env fusion	others
COc1ccc(C(=O)NNC(=O)Cc2coc3cc(OC)ccc23)cc1	-10	.	-10	.	-2	-2	.	-15
CCOC(=O)c1[nH]c(C)c(CN(C(C)=O)c2ccc(OCC)cc2)c1C	29	i	.	-1	1	3	-13	0
O=C(Nc1ncn[nH]1)c1cc(S(=O)(=O)Nc2ccc(Cl)cc2)ccc1Cl	-9	i	.	6	3	5	0	-6
O=C1CC2(CCN(S(=O)(=O)c3ccccc3)CC2)Oc2ccccc21	-10	i	-3	.	0	1	.	6
Cc1ccc(S(=O)(=O)Nc2ccc(NC(=O)CN3CCCCC3)c(Cl)c2)cc1	35	i	-5	-8	-4	-8	8	-12
Cc1ccc(Cl)c(OCCN2CCCC(C)C2)c1 (stereo unspecified)	45	i	-8	-2	3	2	-7	5
O=C(Cc1nnc(NC(=O)c2ccccc2)s1)N/N=C/c1ccc(O)cc1	-2	i	-17	25	0	2	0	-6
NCc1ccc2[nH]c(=O)[nH]c2c1	-5	i	-3	-9	-5	-5	2	-7
CCOC(=O)c1sc2nc(N3CCOCC3)c3c(c2c1N)CCC3	0	i	-5	0	4	2	1	-71
O=C(CN(C(=O)CNS(=O)(=O)c1ccc(F)cc1)c1ccc(F)cc1)NCc1ccco1	-6	i	-14	-4	4	2	-8	7
COc1ccc(/C=N/N2CCN(C)CC2)c(OC)c1OC	-9	i	.	-5	0	3	-7	10
C/C(=N/NC(=O)c1cnccn1)c1ccncc1	-8	i	-21	-8	0	4	-5	-9
Cc1ccc2cc(CCNC(=O)c3ccc(C)c([N+](=O)[O-])c3)c(=O)[nH]c2c1	-2	i	-8	3	0	-1	6	.
O=C(CCc1ccccc1Cl)Nc1cc(S(=O)(=O)N2CCOCC2)ccc1N1CCCC1	.	.	-5	.	1	3	.	2
Cc1ccc(N)cc1S(=O)(=O)N(C)C	2	i	.	-3	1	0	-6	13
Cc1ccc(NC(=O)NCCN2CCCCC2)cc1C	8	i	-22	5	-2	1	-14	-5
CCOc1ccc(-c2nc(N)nc(C)c2-c2ccc(Cl)cc2)c(O)c1	2	i	-6	6	-2	1	15	4
CCOc1ccc(NC(=O)c2ccc3[nH]c(=O)c(=O)[nH]c3c2)cc1	-27	i	-4	-10	-1	5	9	-2
COc1ccc(CCN2CC(C(=O)OCC(=O)NCc3ccccc3Cl)CC2=O)cc1OC (stereo unspecified)	.	.	-37	.	-3	3	.	3
CC(C)c1cn(CC[C@@H]2CC[C@@H](NC(=O)C3CCCCC3)[C@@H](CO)O2)nn1	.	.	-6	.	-1	3	.	1[16.7 µM]
O=C1CN(C(=O)COC(=O)C2=COCCO2)c2ccccc2N1	-1	i	-6	-7	0	4	3	-35
O=C(CSc1ccc2nnc(-c3cccs3)n2n1)N1CCOCC1	.	.	-18	.	-1	4	.	9
COC(=O)[C@@]1(Cc2ccc(F)cc2)[C@H]2c3cc(C(=O)N(C)C)n(CCc4ccccn4)c3C[C@H]2CN1C(=O)c1ccccc1	-18	i	.	9	.	.	3	-13
Cc1c(C(=O)NC2CCC(C)CC2)oc2ccccc12 (stereo unspecified)	8	i	6	-6	-1	0	4	-53
CC(c1ccccc1)n1c(-c2cccs2)nc2c(c(=O)c3ccccc3n2C)c1=O (stereo unspecified)	7	.	-19	5	0	-6	2	5
O=C1c2c(Br)c(Br)c(Br)c(Br)c2C(=O)N1c1ccccn1	84*	i	-7	-4	-3	6	-7	3
CCOCCCNC(=O)CN1CCN(Cc2ccccc2C)C1=O	-11	i	-38	-7	0	4	4	-5
CN(c1ccccc1)S(=O)(=O)c1cccc(C(=O)NCC(c2cccs2)N2CCOCC2)c1 (stereo unspecified)	.	.	-16	.	3	-6	.	-15
O=C(CN1CCN(c2ccc(O)cc2)CC1)NC(=O)NCc1ccco1	4	i	-10	15	4	5	-13	25
CCCn1c(=O)c(C(=O)NCc2ccccn2)c(O)c2ccccc21	4	.	-17	8	6	3	-4	.
NC(=O)C1(N2CCCCC2)CCN(Cc2nc(-c3cccs3)no2)CC1	-8	i	.	-6	-1	1	-2	-3
COC(=O)C1=C(O)/C(=C\c2sccc2C)N=C1C	-8	i	-23	65*	7	9	4.9*	.	eIF4H inh retest=90*;PABP polyA inh retest=72*
Cc1ccc(C(=O)CSc2nc3cc(S(=O)(=O)N4CCOCC4)ccc3o2)cc1	18	i	-17	-11	6	9	1	-43
COC(=O)C1=CN(Cc2ccc(OC)cc2)C=C(C(=O)OC)C1c1cccs1	3	i	.	-1	-5	-2	-7	4
CC(=O)Nc1ccc(NC2=Nc3ccccc3N3C2=Nc2c(c(C)nn2-c2ccccc2)C3c2ccccc2)cc1 (stereo unspecified)	-1	i	-15	36	-31	-27	17	?
COc1ccc(C(=O)O/N=C(\N)c2ccccn2)cc1	10	i	-95	3	2	2	-2	70*

Ordered by molar mass (rising): part of the list above.
SMILES	CSC inhib	Rce1 inhib	UUG fidelity	eIF4H inh	MT1-MMP act inh	MT1-MMP act inh RFP	PABP polyA inh	HIV Env fusion	others
O=C(CN1CCN(c2ccc(O)cc2)CC1)NC(=O)NCc1ccco1	4	i	-10	15	4	5	-13	25
NC(=O)C1(N2CCCCC2)CCN(Cc2nc(-c3cccs3)no2)CC1	-8	i	.	-6	-1	1	-2	-3
CN(c1ccccc1)S(=O)(=O)c1cccc(C(=O)NCC(c2cccs2)N2CCOCC2)c1 (stereo unspecified)	.	.	-16	.	3	-6	.	-15
O=C1c2c(Br)c(Br)c(Br)c(Br)c2C(=O)N1c1ccccn1	84*	i	-7	-4	-3	6	-7	3

Following part.
SMILES	CSC inhib	Rce1 inhib	UUG fidelity	eIF4H inh	MT1-MMP act inh	MT1-MMP act inh RFP	PABP polyA inh	HIV Env fusion	others
CCCCn1c(=O)cc(O)c2ccccc21	8	i	-18	0	0	4	4	-27
CC(C)(C)c1ccccc1OCC(=O)Nc1ncn[nH]1	9	i	-2	20	-5	-2	-8	-81
CCN(CC)C(=O)N1CCN(S(=O)(=O)c2ccc(C)cc2)CC1	-12	i	2	-6	-3	-4	-6	14
CC(=O)N1CCN(c2ccc(NC(=S)NC(=O)/C=C/c3ccccc3)cc2)CC1	.	i	.	-4	.	.	3	8
Cc1ccc(CC(=O)Nc2cc([N+](=O)[O-])ccc2F)cc1	-6	i	.	5	4	7	-4	10
Cc1cc(NS(=O)(=O)c2ccc(NC(=O)CN3C(=O)c4ccccc4C3=O)cc2)nc(C)n1	-14	i	-14	-9	3	5	-7	-1
C[C@H](NC(=O)c1cc2c(cn1)[nH]c1ccccc12)C(=O)O	1	i	0	1	5	10	12	21
O=C(O)c1ccn[nH]1	-1	i	-18	.	4	7	.	.
Cc1cccc(CCNC(=O)C2CCN(S(=O)(=O)c3c(C)noc3C)CC2)c1	-16	i	.	-2	5	3	1	-48
CCOC(=O)N1CCC2CC1c1cc(-c3cccc(OC)c3)ccc12 (stereo unspecified)	.	.	-6	.	5	-3	.	8
Cc1cccc(/C(N)=N/OC(=O)N2c3ccccc3Sc3ccccc32)c1	7	i	-12	-15	-2	-2	-4	-70
CCCc1ccccc1OCCNS(=O)(=O)c1cc2c(cc1C)OCC(=O)N2	8	i	7	10	-4	-8	22	2

3 consecutive compounds already listed, for reference:
SMILES	CSC inhib	Rce1 inhib	UUG fidelity	eIF4H inh	MT1-MMP act inh	MT1-MMP act inh RFP	PABP polyA inh	HIV Env fusion	others
CCOC(=O)N1CCC2CC1c1cc(-c3cccc(OC)c3)ccc12 (stereo unspecified)	.	.	-6	.	5	-3	.	8
Cc1cccc(/C(N)=N/OC(=O)N2c3ccccc3Sc3ccccc32)c1	7	i	-12	-15	-2	-2	-4	-70
CCCc1ccccc1OCCNS(=O)(=O)c1cc2c(cc1C)OCC(=O)N2	8	i	7	10	-4	-8	22	2

Next section:
SMILES	CSC inhib	Rce1 inhib	UUG fidelity	eIF4H inh	MT1-MMP act inh	MT1-MMP act inh RFP	PABP polyA inh	HIV Env fusion	others
O=[N+]([O-])c1ccc(Cl)c(/C=N/N2CCN(c3ccccc3)CC2)c1	38	i	-16	2	7	1	-7	.
Cc1cc(C(F)F)n2ncc(C(=O)NCc3ccccc3F)c2n1	11	i	.	-6	-1	-1	8	.
COc1ccc(-n2ccnc2SCC(=O)NC2CCCC2)cc1	-23	.	-18	.	-3	-2	.	.
COc1ccccc1NC(=O)Oc1cccc(OC(=O)c2ccccc2)c1	-12	i	-7	11	.	.	6	-15
Cc1ccccc1CSc1nn2c(=O)c(C)nnc2s1	3	i	.	0	2	1	-10	19
CCC(C)(C)NC(=O)CN(C(=O)CCC(=O)Nc1cc(C)ccn1)c1ccc2c(c1)OCO2	-12	i	1	-6	-1	10	13	.
Cc1ccc(/C=N/NC(=O)c2nnn(-c3nonc3N)c2CN(C)c2ccccc2)s1	14	i	-11	-8	2	5	0	6
COCCNC(=O)C(c1ccc(O)cc1)N(C(=O)CCC(=O)Nc1nccs1)c1cccc(C)c1 (stereo unspecified)	7	i	.	0	-7	-1	-7	0
CC(=O)N(Cc1ccc2c(c1)OCO2)C1CC(=O)N(CCc2ccccc2)C1=O (stereo unspecified)	-8	i	9	1	4	4	-5	.
Cc1nc2cc(Cl)c(Cl)cc2n1CCCO	-13	i	-3	2	-3	-3	2	7
CCC/C=C/c1ccc(CN2C(C)C(=O)N(Cc3cn(CCOCOC)nn3)CCS2(=O)=O)cc1 (stereo unspecified)	.	.	4	.	4	4	.	22
COc1cc(/C=N/Nc2nn3cnnc3c3ccccc23)cc(OC)c1OC	7	i	-9	-8	.	.	-6	-85
CCc1ccc(-c2ccc(C(=O)O)cc2)nc1	8	i	-20	-5	-4	-6	-5	-63
COCC(C)NC(=O)c1cc(-c2ccc(OC)c(OC)c2)on1 (stereo unspecified)	6	i	-15	-12	7	1	8	.
CCC(C)(C)C1CCC2(CC1)NC(=O)N(CC(=O)N1CCN(S(=O)(=O)c3cc(C)ccc3C)CC1)C2=O (stereo unspecified)	7	i	-1	2	1	-4	-3	-4

Compound activity as filed in PubChem BioAssay.
